Mtb betalactam: beta-lactam sensitization of Mtb H37Rv; AID 434955; 330,000 tested, 0.27% active; inhibition, % at 25 µM; M. tuberculosis H37Rv growth with meropenem, percent inhibition; hits of this screen are not shown here;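 active means about 74% or more and at least 40 points above the plate without the antibiotic, then above 30% in a dose series; inconclusive means first-round hits that could not be retested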;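 further: growth measured after seven days incubation then overnight dye step; 0% = bacteria only wells and 100% = bacteria with antibiotic; twin plates without the antibiotic show which effects depend on it; some results filed as inactive read as strong as hits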
* hit, by the source's call; ? = inconclusive. Not all compounds are listed; the hit share may differ from the screen's.

mol	Mtb betalactam
COc1ccc(/C=N\NC(=O)c2sccc2C)cc1Cn1nc(C)cc1C	-3
CCOc1ccccc1OCCCC(=O)Nc1cccc(S(=O)(=O)N2CCOCC2)c1	5
Cc1nc(N/N=C/c2cccc(F)c2)cc(N2CCOCC2)n1	3
N#Cc1ccc(C2=CC(=O)C[C@H](c3ccc4c(c3)OCO4)C2)cc1	1
O=C(CSc1nnnn1C1CC1)N1CCN(c2ccccc2F)CC1	-8
CC(Sc1nc2c(c(=O)[nH]1)CCCC2)C(=O)Nc1ccc(S(N)(=O)=O)cc1 (stereo not drawn)	-2
CC1O[C@@H](OC2C(O)C(C)O[C@H](OC(=O)[C@]34CCC(C)(C)C[C@H]3C3=CCC5[C@@]6(C)CC(O)C(O[C@@H]7OC(CO)C(O)[C@@H](O)[C@@H]7O)[C@@](C)(C(=O)O)C6CC[C@@]5(C)[C@]3(CO)CC4)C2O[C@H]2OC(C)[C@@H](O[C@@H]3OCC(O[C@@H]4OC(CO)C(O)[C@H](O)C4O)[C@@H](O)[C@@H]3O)[C@H](O)C2O)C(O)C(O)C1O (stereo partly drawn)	-8
CS(=O)(=O)N1CCC(C(=O)Nc2cc(Cl)c(Cl)cc2Cl)CC1	1
NC(=O)C1CCN(c2nc(-c3ccc4occc(=O)c4c3)cs2)CC1	-2
O=C(NCC1COc2ccccc2O1)c1cccc(S(=O)(=O)N2CCOCC2)c1 (stereo not drawn)	-5
CC(=O)c1ccccc1NC(=O)c1ccc(OCc2c(C)noc2C)cc1	-2
COc1ccc(Cl)cc1NC(=O)COC(=O)C1=NNC(=O)CC1	9
COC(=O)C1=C(c2cccc(OCc3ccccc3)c2)C[C@@H]2CC[C@H]1N2C(=O)NCc1ccccc1OC	5
CN(Cc1ccc(OC(F)F)cc1)C(=O)c1ccc(S(=O)(=O)N(C)c2ccccc2)cc1	-7
Cc1cc(=O)oc2cc(OCC(=O)N3CCCC3)c(Cl)cc12	-8

Reprinted from the part before: 3 compounds, then new ones.
mol	Mtb betalactam
COC(=O)C1=C(c2cccc(OCc3ccccc3)c2)C[C@@H]2CC[C@H]1N2C(=O)NCc1ccccc1OC	5
CN(Cc1ccc(OC(F)F)cc1)C(=O)c1ccc(S(=O)(=O)N(C)c2ccccc2)cc1	-7
Cc1cc(=O)oc2cc(OCC(=O)N3CCCC3)c(Cl)cc12	-8
CCN(C[C@H]1N[C@@](C)(C(=O)OC)[C@H]2C(=O)N(Cc3ccccc3)C(=O)[C@@H]12)C(=O)COC	-4
CCOc1ccc(N2CC(C(=O)N3CCCC3)CC2=O)cc1 (stereo not drawn)	-25
Cc1ccc(S(=O)(=O)N2CCCCC2)cc1NC(=O)COc1ccccc1	-5
Cc1cccc(C(=O)NC(C(=O)Nc2cccc(S(=O)(=O)N3CCCC3)c2)C(C)C)c1 (stereo not drawn)	-4
COc1ccc(/C=C/C(=O)OCC(=O)Nc2ccc3c(c2)OCO3)cc1	83
COc1cc(C(=O)COC(=O)c2ccco2)cc(OC)c1OC	-1
CCOc1ccc2oc(C(=O)Nc3nccs3)c(C)c2c1	-1
CC1CCc2sc(C(=O)NC3CCCCC3)cc2C1 (stereo not drawn)	-7
CCOc1ccc(NC(=O)c2ccc(NC(=O)C3CCCO3)cc2)cc1 (stereo not drawn)	61
CC1CCC2(CC1)NC(=O)N(CC(=O)NCc1ccc(F)cc1)C2=O (stereo not drawn)	-6
COc1ccc(CN(C)C(=O)c2[nH]c(C)c(C(C)=O)c2C)c(OC)c1OC	1
COC(=O)C1=C(c2cccc(OCc3ccccc3)c2)C[C@@H]2CC[C@H]1N2C(=O)NCc1ccc([N+](=O)[O-])cc1	-9
CC[C@@]1(C(=O)OC)N[C@H](CN(C)C(=O)c2ccc(F)cc2)[C@@H]2C(=O)N(Cc3ccccc3)C(=O)[C@@H]21	-6
Cc1ccc(C)c(S(=O)(=O)Nc2ccc(S(=O)(=O)Nc3ncccn3)cc2)c1	-3
Cc1ccc(C)c(OCC(=O)N2CCN(c3ncccn3)CC2)c1	-5
Cc1cc(C(=O)OCC(=O)Nc2c(Cl)cccc2Cl)c(C)o1	-8
CC(N=C1NS(=O)(=O)c2ccccc21)C(=O)OCC(=O)N(C)C1CCS(=O)(=O)C1 (stereo not drawn)	-4
CCN(CC)c1ccccc1	7
Cc1ccc(C2(c3ccccc3)NC(=O)N(CC(=O)NC3CCS(=O)(=O)C3)C2=O)cc1C (stereo not drawn)	-4
COc1ccc(S(=O)(=O)N2CCN(C(=O)CC3CC4CCC3C4)CC2)cc1 (stereo not drawn)	5
NS(=O)(=O)c1ccc(CCNC(=O)c2cc(-c3ccco3)nc3ccccc23)cc1	6
CNS(=O)(=O)c1cc(-c2nnc(N3CCOCC3)c3ccccc23)ccc1C	-3
COc1cccc(CNC(=O)COC(=O)c2ccc(C(=O)c3ccccc3)cc2)c1	-2
Cc1ccc(NC(=O)c2cc(C)nc3ccccc23)c(Br)c1	95
CC(C)c1ccc(/C=C/C(=O)NCCCN2CCOCC2)cc1	0
CCOc1cc(N2CCOCC2)c(OCC)cc1NC(=O)c1cnccn1	-3
CCC(C)N(C(=O)CSc1nc(C)nc2ccccc12)C1CCS(=O)(=O)C1 (stereo not drawn)	2
CCC(=O)c1cn(CC(=O)Nc2c(C)cccc2C)c2ccccc12	4
CN(C)CCCNC(=O)CC1C[C@H](C(=O)N2CCCCC2)[C@@]2(CCc3ccccc3)c3[nH]c4ccccc4c3CCN2C1=O (stereo partly drawn)	4
CCOc1ccccc1N1CCN(C(=O)CSc2ccc3c(c2)OCCO3)CC1	-2
O=C(OCc1nc2ccccc2s1)c1ccc([N+](=O)[O-])o1	96
CSc1ccccc1NC(=O)COC(=O)CCC(=O)c1ccc(F)cc1	1
O=C(OCC(=O)N1N=C(c2ccc(Cl)cc2)CC1c1ccco1)c1cccnc1 (stereo not drawn)	2
Cc1cccc(OCC(=O)N(Cc2nnc(-c3ccccc3Cl)o2)C2CC2)c1	1
Nc1c(N(Cc2ccccc2)C(=O)COc2ccc(F)cc2Cl)c(=O)[nH]c(=O)n1Cc1ccccc1	-1
O=C(Cn1ccc2ccccc2c1=O)NCCC(=O)N1CCN(c2ccccc2)CC1	0
Cc1ccc(S(=O)(=O)N2CCOCC2)cc1C(=O)NCc1ccccc1CN1CCCC1	2
CC1CCN(C(=O)COC(=O)/C=C/c2ccco2)CC1	49
COc1cccc(C(=O)NC(C)CCc2ccccc2)c1 (stereo not drawn)	-6
Cc1noc(C)c1S(=O)(=O)N(C)C[C@H]1Oc2ccc(NC(=O)CCC(F)(F)F)cc2C(=O)N([C@H](C)CO)C[C@@H]1C	8
Cc1nc(SCC(=O)N(CC(C)C)C2CCS(=O)(=O)C2)c2c(C)c(C)sc2n1 (stereo not drawn)	4
COCCNC(=O)Cn1cnc2sc(C)c(S(=O)(=O)N3CCN(c4ccccc4OC)CC3)c2c1=O	-5
CCN(CC)C(=O)c1cccc(NC(=O)c2ccccc2OCc2c(C)noc2C)c1	-7
OC(CCN1CCOCC1)c1ccccc1 (stereo not drawn)	-11
CSCC[C@@H](C(=O)NCCCCCCCCCCC(=O)N1CCN(C(=O)OC(C)(C)C)CC1)n1cc(CCO)nn1	93
CC(C)c1ccc(S(=O)(=O)N2CCN(CC(O)CN3CCOCC3)CC2)cc1 (stereo not drawn)	12
Cc1ccc(S(=O)(=O)N(CC(=O)N2CCOCC2)c2ccc(C(C)C)cc2)cc1	?
CCN(C(=O)Cn1c(=O)oc2ccccc21)c1c(N)n(Cc2ccccc2)c(=O)[nH]c1=O	-1
Cc1c(NC(=O)c2cccc(NC(=O)COc3ccccc3)c2)c(=O)n(-c2ccccc2)n1C	41
CCc1cc2c(SCC(=O)N3CCCC3=O)ncnc2s1	2
COc1ccc(OC)c(NC(=O)COC(=O)C2CCC2)c1	2
CCN(CC(=O)NCc1ccc(F)cc1)CC(=O)Nc1cc(S(=O)(=O)N(C)C)ccc1C	0
CC(=O)c1c[nH]c(C(=O)Nc2ccc(N3CCCCCC3)cc2)c1	-1
CCN(CC)S(=O)(=O)c1ccc(C(=O)NCC2CCCCC2)cc1	0
CC(C)C(C)NC(=O)CSc1ccc(S(=O)(=O)N2CCOCC2)cn1 (stereo not drawn)	-7
Cc1ccc(C(=O)Nc2ncccc2C)cc1S(=O)(=O)N1CCOCC1	-6
COC1=CC2[C@@H]3Cc4ccc(OC)c(O)c4[C@]2(CCN3C)CC1=O (stereo partly drawn)	2
COc1ccc(NC(=O)c2ccc(NC(=O)CCS(=O)(=O)c3cccs3)cc2)cc1	0
O=C(COc1ccccc1)OCc1cc(-c2ccco2)on1	0
COC(=O)C(C)(N)Cc1ccc(O)cc1 (stereo not drawn)	-1

(continued)
mol	Mtb betalactam
N#Cc1ccc(CN2CCN(C(=O)c3cc(C4CC4)nn3-c3ccccc3)CC2)cc1	1
COCCn1nnnc1C1(N(Cc2cc3cc(C)ccc3[nH]c2=O)CC2CCCO2)CCN(C)CC1 (stereo not drawn)	-4
COc1ccc(CNC(=O)CCC(=O)c2ccccc2)cc1	2
CCN(c1ccccc1)S(=O)(=O)c1cc(NC(=O)CN2CCN(C)CC2)ccc1Cl	1
CC(=O)c1ccc(N2CCN(C(=O)C3CCN(C(=O)Nc4ccccc4)CC3)CC2)cc1	-1
O=C(OCCCc1cc2ccccc2c(=O)o1)c1ccc(F)cc1	4
CC(C)CC1NC(=O)N(CC(=O)Nc2cccc(Br)c2)C1=O (stereo not drawn)	-5
CC(=O)c1c(OC(=O)c2ccccc2)ccnc1C(F)(F)F	1
COc1ccc(OCC(=O)OCC(=O)c2ccc(OC)c(F)c2)cc1	4
COC(=O)c1ccc(NC(=O)C2CCN(C(=O)Nc3ccccc3)CC2)cc1	-9
O=C(CN1C(=O)NC2(CCCCC2)C1=O)Nc1ccc2c(c1)OCCCO2	9
CC(CNC(=O)COC(=O)c1cccs1)c1ccccc1 (stereo not drawn)	-2
CCN(CC)C(=O)[C@H]1CC(CC(=O)NCC23CC4CC(CC(C4)C2)C3)C(=O)N2CCc3c([nH]c4ccccc34)[C@]12C (stereo partly drawn)	93
CCOc1ccc(N2CC(C(=O)N3CCCc4ccccc43)CC2=O)cc1 (stereo not drawn)	-2
CC(NC(=O)CSc1nc(C2CC2)n(-c2ccccc2)n1)c1ccco1 (stereo not drawn)	2

As a working copy, 2 of the compounds above:
mol	Mtb betalactam
N#Cc1ccc(CN2CCN(C(=O)c3cc(C4CC4)nn3-c3ccccc3)CC2)cc1	1
COCCn1nnnc1C1(N(Cc2cc3cc(C)ccc3[nH]c2=O)CC2CCCO2)CCN(C)CC1 (stereo not drawn)	-4

Next section
mol	Mtb betalactam
CC(=O)c1ccc(NC(=O)COC(=O)Cc2ccsc2)cc1	2
Cc1cccc(C)c1NC(=O)CNC(=O)C(C)NC(C)c1ccccc1Br (stereo not drawn)	-4
CC1CCCC(NC(=O)CSc2n[nH]c(=O)n2Cc2ccccc2)C1C (stereo not drawn)	-1
COc1ccc(C)cc1S(=O)(=O)Nc1cccc(-c2cn3cccnc3n2)c1	-24
CC(Sc1nnnn1C1CCCC1)C(=O)Nc1cccc(S(=O)(=O)N2CCOCC2)c1 (stereo not drawn)	-7
Cc1ccc(-c2cn(CCN)c(-c3ccncc3)n2)cc1	-4
Cc1cc(C)c(C)c(S(=O)(=O)N2CCN(c3ncnc4ccccc34)CC2)c1C	4
C=CCn1c(SCc2ccc(C(=O)NCCO)cc2)nc2ccccc2c1=O	1
Cc1cc(NC(=O)CSCC(=O)Nc2nc3ccccc3[nH]2)no1	-5
COc1ccc([C@H]2CC(=O)C=C(c3cc(F)ccc3F)C2)cc1OC	-1
CC1(c2ccc3c(c2)OCCO3)NC(=O)N(CC(=O)Nc2c(F)cccc2F)C1=O (stereo not drawn)	1
CN1CCN(c2ccc(Cl)cc2NC(=O)CC2OC(=O)c3ccccc32)CC1 (stereo not drawn)	4
N#CC1(NC(=O)CSc2nc3ccccc3o2)CCCCC1	-6
COc1ccc2oc(C(=O)N3CCN(S(=O)(=O)c4ccc(F)cc4)CC3)c(C)c2c1	1
COc1cc2c(cc1OC)CN(C(=O)C1CCCN(C(=O)c3ccc(Cl)cc3)C1)CC2 (stereo not drawn)	-7
COc1ccc(-c2sc3ccccc3c2/C=C/c2ccncc2)cc1	99
Cc1ccc(S(=O)(=O)N2CCCCC2)cc1NC(=O)Cn1cc(C(F)(F)F)ccc1=O	-7
CN(C(=O)c1ccco1)c1nc(-c2ccc(Cl)cc2)cs1	2
CCOc1cc(/C=C2/N=C(c3ccc4c(c3)OCO4)OC2=O)ccc1OC(C)=O	95
COc1cc(C(=O)NNC(=O)c2nn(C)c(=O)c3ccccc23)cc(OC)c1OC	0
CC(C)CN(C(=O)CSc1ccc2c(c1)OCCO2)c1c(N)n(CC(C)C)c(=O)[nH]c1=O	8
O=C(CCc1ccccc1)Nc1cc2c(cc1C(=O)O)OCCCO2	-4
COc1ccc(C(=O)NCC(C)(C)N2CCOCC2)cc1S(=O)(=O)N1CCCC1	-3
Cc1ccc(NC(=O)COc2ccc(N(C)S(=O)(=O)c3ccc(F)cc3)cc2)cc1	-2
CCCN(CC(=O)Nc1ccccc1C)C(=O)c1ccc2[nH]c3c(c2c1)CC(C)CC3 (stereo not drawn)	2

A draw from above in order of number of heavy atoms, rising.
mol	Mtb betalactam
O=C(CCc1ccccc1)Nc1cc2c(cc1C(=O)O)OCCCO2	-4
COc1ccc(C(=O)NCC(C)(C)N2CCOCC2)cc1S(=O)(=O)N1CCCC1	-3
Cc1ccc(NC(=O)COc2ccc(N(C)S(=O)(=O)c3ccc(F)cc3)cc2)cc1	-2

Compound activity: PubChem BioAssay, Southern Research Specialized Biocontainment Screening Center
